Screening data from PubChem.
Mtb H37Rv: Mycobacterium tuberculosis H37Rv growth inhibition, cell based, confirmatory dose response (AID 1949); 1.6% of 100,000 active; most inactive calls were filed without a number and no value below 0 was filed; inhibition, % at 10 µg/mL; hits with a dose series show IC50 in µg/mL;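 active means confirmed in a dose series; inconclusive means about 50% or more but not retested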;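 further: bacteria grown 7 days with compound before Alamar blue readout; 0% = untreated bacteria and 100% = reference antibiotic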
* marks the source's active call; other numbers are inactive results; i = inactive; ? = inconclusive. Not all compounds are listed (hit frequency here may not be typical).

SMILES | Mtb H37Rv
COc1ccc(C)cc1NC(=S)N1CCN(c2ccccn2)CC1 | 2%
Cc1cc(C)c(C)c(S(=O)(=O)N2CCN(C)CC2)c1C | i
CN1CCC(OC(=O)Cc2ccc(Cl)cc2)CC1 | 3%
Cc1cc(OCCN2CCC(C)CC2)ccc1[N+](=O)[O-] | i
COc1c(S(=O)(=O)NC(c2ccccc2)c2ccccc2)ccc(Cl)c1Cl | i
COC(=O)c1c(NC(=O)CCc2ccccc2)sc2c1CCC2 | 18%
CC(C)(C)c1ccc(-c2cn[nH]c2N)cc1 | ?
COc1cccc(N2CCN(C(=S)Nc3cc(C)cc(C)c3)CC2)c1 | 2%
COc1ccc(Cl)cc1S(=O)(=O)N1CC(C)OC(C)C1 (stereo not drawn) | i
c1ccc2c(OCCN3CCCCCC3)cccc2c1 | i
O=C(Nc1ccc(F)cc1)c1ccc2nc[nH]c2c1 | i
O=c1c2ccccc2[nH]c2ccc(I)cc12 | i
Fc1ccccc1-c1nc(N2CCOCC2)c2ccccc2n1 | i
COC(=O)C1=CN(C2CC2)C=C(C(=O)OC)C1c1ccccc1 | i
Cc1cc(Cl)ccc1OC(C)C(=O)NCCN1CCOCC1 (stereo not drawn) | i
O=C(NC1C2CC3CC(C2)CC1C3)C1CCCCC1 (stereo not drawn) | i
CCOC(=O)c1ccc(NC(=O)CN(C)S(=O)(=O)c2c(C)cc(C)cc2C)cc1 | i
COc1cc(C=O)ccc1OCC(O)Cn1c2ccccc2c2ccccc21 (stereo not drawn) | i
O=C(OCc1nc2ccccc2s1)c1ccccc1 | ?
COc1ccc(NC(=O)CCC2COc3ccccc3O2)c(OC)c1 (stereo not drawn) | i

Brought forward from above: 2 entries, then new ones.
SMILES | Mtb H37Rv
O=C(OCc1nc2ccccc2s1)c1ccccc1 | ?
COc1ccc(NC(=O)CCC2COc3ccccc3O2)c(OC)c1 (stereo not drawn) | i
Cc1ccc(S(=O)(=O)Nc2ccc(S(=O)(=O)c3ccc(F)cc3)cc2)cc1 | 1%
Cc1ccsc1CN1CCN(c2cccc(C(F)(F)F)c2)CC1 | 0%
CC1(C)CC2(CCO1)OC(=O)CC2C#N (stereo not drawn) | i
NC(N)=NC(N)=Nc1cccc([N+](=O)[O-])c1 | 3%
O=C(CCN1C(=O)C2C3CCC(C3)C2C1=O)Nc1ccc(Br)c(Cl)c1 (stereo not drawn) | i
COc1ccc(-c2nc(-c3ccc(Cl)cc3)no2)c(OC)c1 | i
Cc1cc(C)cc(NC(=S)N2CCC(Cc3ccccc3)CC2)c1 | 5%
COc1ccc(-c2nnc(SCC(=O)Nc3nc(-c4ccc(Br)cc4)cs3)n2C)cc1 | i
COc1ccc(-c2cc(C(F)(F)F)nc(SCCC(=O)Nc3cn(C)nc3C)n2)cc1 | i
CCc1sc(NC(=O)c2cccnc2)nc1-c1ccccc1 | i
O=C(Nc1cccc([N+](=O)[O-])c1)C1CCN(C(=O)c2ccc(Br)cc2)CC1 | i
CC(C)(C)c1csc(NC(=O)C(CC(=O)O)NCc2ccco2)n1 (stereo not drawn) | i
CCOC(=O)C1CCN(S(=O)(=O)c2cccc(-c3cn4cccnc4n3)c2)CC1 | 3%
CC(CC(=O)Nc1nc2c(s1)CCCC2)c1ccccc1 (stereo not drawn) | i
COc1cccc(C(=O)NCc2ccc(Cl)cc2)c1OC | i
Cc1ccc(S(=O)(=O)Nc2c(C)[nH]c(=O)[nH]c2=O)cc1 | 4%
CCN(Cc1ccccc1)C1CCN(Cc2ccccc2C(F)(F)F)CC1 | i
CCOC(=O)c1ccc(-n2c(CCC(=O)O)ccc2-c2cccs2)cc1O | i
O=C(O)c1cccc(NC(=S)NC(=O)c2cccc(I)c2)c1 | i
O=C(CC(NCc1ccco1)C(=O)O)NN(c1ccccc1)c1ccccc1 (stereo not drawn) | i
O=C(c1ccco1)N1CCN(C2=NS(=O)(=O)c3ccccc32)CC1 | i
COc1ccc(C)cc1NS(=O)(=O)Cc1ccc(Cl)cc1 | 5%
Nn1c(SCc2ccccc2)nnc1C(F)(F)F | i
O=C(NCC1(c2ccccc2)CCOCC1)C1CCCCC1 | 2%
Cc1cc(=O)oc2cc(NC(=S)N3CCN(S(=O)(=O)c4ccc(Cl)cc4)CC3)ccc12 | i
CCOC(=O)c1ccc(COC(=O)CNC(=O)CNC(=O)Cc2ccccc2)cc1 | i
O=C(COc1ccccc1)N1CCNCC1 | i
COc1ccc(N(CC(=O)Nc2ccccc2C(=O)NCCc2ccccc2)S(C)(=O)=O)cc1Cl | i
Cc1ccc(SCC(=O)NC(C)c2ccccc2)cc1 (stereo not drawn) | 1%
CC1CN(C(=O)CCN2C(=O)c3ccccc3C2=O)CC(C)O1 (stereo not drawn) | i
COC(=O)c1ccsc1NC(=O)CN1CCN(Cc2ccc3c(c2)OCO3)CC1 | i
COc1ccc(-c2csc3ncn(Cc4c(Cl)cccc4Cl)c(=O)c23)cc1 | i
Cc1ccc(NC(=O)C2CCCCC2)cc1 | i
CCn1c(SCC(=O)Nc2cc(C)cc(C)c2)nnc1C(C)NC(=O)c1ccc(Cl)cc1Cl (stereo not drawn) | i
CCOc1ccccc1C(=O)Nc1ccc(C(=O)OC)cc1 | i
COc1ccc(/C=C2/C(=O)NC(=O)N(c3ccc(Cl)cc3)C2=O)c(OC)c1 | i
CCOc1cc(C(=O)N(CC)Cc2ccccc2)cc(OCC)c1OCC | i
Cc1ccc(OCC(=O)Nc2ccc(S(=O)(=O)Nc3nccs3)cc2)c(C)c1 | 7%
CNC(=O)CN(c1cc(C)cc(C)c1)S(=O)(=O)c1ccc(OC)c(OC)c1 | i
CCC(=O)Nc1cccc(NC(=O)c2cc(OC)cc(OC)c2)c1 | 4%
Cc1ccc(Cn2cnc3scc(-c4ccc(C)c(C)c4)c3c2=O)cc1 | i
CCOC(=O)c1ccc(NC(=O)CN2CCCCC2)cc1 | i
O=C(c1cc2cc(Cl)cc(Cl)c2oc1=O)N1CCCc2ccccc21 | i
Cc1ccccc1N1C(=O)NC(=O)/C(=C\c2ccc([N+](=O)[O-])s2)C1=O | 6.2µg/mL*
O=C(Nc1ccc(-c2nnc(-c3ccco3)o2)cc1)C(c1ccccc1)c1ccccc1 | i
Cc1cc(C)c(S(=O)(=O)N(CC(=O)O)Cc2ccc(Cl)cc2)c(C)c1 | i
CCOc1ccc(-n2c(C)nnc2SCC(=O)Nc2ccccc2C(F)(F)F)cc1 | i
CSc1ccc(C2c3c(oc4ccc(C)cc4c3=O)C(=O)N2Cc2ccc(F)cc2)cc1 (stereo not drawn) | i
O=C(NCC(F)(F)F)Nc1ccccc1 | i
CCCc1cc(=O)oc2cc(OCC(=O)N3CCOCC3)c(Cl)cc12 | i
Cc1cc(OCC(=O)Nc2cccnc2)ccc1[N+](=O)[O-] | i
Cc1ccc(S(=O)(=O)N(CC(=O)NC2CCCC2)Cc2c(Cl)cccc2Cl)cc1 | i
CCOC(=O)c1ccccc1NC(=O)c1ccccc1NC(=O)c1ccc(OC)cc1 | i
CC(=O)c1cc(OC(=O)CCCN2C(=O)c3ccccc3C2=O)ccc1OC(=O)CCCN1C(=O)c2ccccc2C1=O | i
Cc1ccc(C2C(C#N)=C(N)N(c3cccnc3)C3=C2C(=O)CCC3)s1 (stereo not drawn) | i
O=c1oc(-c2ccc([N+](=O)[O-])cc2)nc2ccc(O)cc12 | 18%
CCN(CC)CC(=O)Nc1ccc(C)cc1Br | i
CCCCOc1cccc(C(=O)NC(=S)Nc2cccc(C)c2C)c1 | i
O=C(O)c1ccc(N2C(=O)CC(Nc3ccc(Cl)cc3)C2=O)cc1 (stereo not drawn) | i
CCC(C)NCCOc1ccc(OC)cc1 (stereo not drawn) | i
More structures
SMILES | Mtb H37Rv
Cc1ccc(S(=O)(=O)N2N=C(c3cccs3)CC2c2ccccc2)cc1 (stereo not drawn) | 6%
CC(CCC(=O)NC1CCCCC1)C(=O)O (stereo not drawn) | i
CCCOc1ccc(C(=O)Nc2ccc(Br)cc2C)cc1 | i
NC(=O)C1CCN(C2CC(=O)N(c3ccc(F)c(Cl)c3)C2=O)CC1 (stereo not drawn) | i
COc1ccc(NC(=O)NC(C)c2ccncc2)cc1OC (stereo not drawn) | i
Cc1ccc(C)c(C2C(C#N)=C(N)SC(N)=C2C#N)c1 | i
Cc1ccc(Cl)cc1NC(=O)CSc1ccccc1 | i
O=C1c2ccccc2C(=O)N1OS(=O)(=O)c1ccc(Cl)cc1 | i
O=C(Nc1ccccc1Cc1ccccc1)c1ccco1 | i
O=C(COc1ccccc1F)Nc1nc(-c2ccc(S(=O)(=O)N3CCCC3)cc2)cs1 | i
CCc1ccccc1NC(=O)CN(c1cccc(C(F)(F)F)c1)S(C)(=O)=O | 2%
COc1ccc(OC(C)C(=O)Nc2cc(Cl)ccc2OC)cc1 (stereo not drawn) | 7%
COC(=O)c1cc(S(=O)(=O)/C=C/c2ccccc2)c(Cl)cc1Cl | i
Cc1cc(Oc2ccccc2)nc(SCC(=O)Nc2ccccc2)n1 | 2%
Cc1[nH]c2ccccc2c1C(=O)CSc1nc2ccccc2[nH]1 | i
COc1ccc(OC)c(C(=S)N2CCCCC2)c1 | i
c1ccc(CSc2nnc(C3COc4ccccc4O3)s2)cc1 (stereo not drawn) | 2%
O=C(CSc1nnc(Cc2ccccc2)o1)Nc1ccc(Br)cc1F | i
C=CCn1c(SCC(=O)Nc2nc(-c3ccccc3)c(C)s2)nnc1C(CC(C)C)NC(=O)c1ccccc1Cl (stereo not drawn) | i
O=C(NC(=S)Nc1ccc(S(=O)(=O)N2CCCCCC2)cc1)c1ccco1 | i
CCOc1cc(/C=C\[N+](=O)[O-])ccc1OCC(=O)N1CCOCC1 | i
CCOC(=O)c1cccc(N2C(=O)c3ccccc3S2(=O)=O)c1 | i
CCOC(=O)Nc1cc2c(cc1C(C)=O)OCO2 | i
CC(=O)Nc1ccc(NC(=O)CCC2CCCC2)cc1 | i
O=C(Nc1ccc(Cl)cc1Cl)C1CC(=O)N(C2CCCCC2)C1 (stereo not drawn) | i
CCOc1cccc(OCCN2CCCCCC2)c1 | i
Cc1ccc(-c2nc(NC(=O)CO)cs2)cc1 | 0.36µg/mL*
Cc1c(F)cccc1NC(=O)C1CCCCC1C(=O)O (stereo not drawn) | i
CCOC(=O)CN(c1ccc(C)c(C)c1)S(=O)(=O)c1ccccc1 | i
FC(F)(F)c1ccccc1NC(=S)NN1CCOCC1 | i
CCC(=O)N(CCC(c1ccc(C)cc1)c1ccco1)Cc1ccccc1 (stereo not drawn) | 6%
Fc1ccc(CNC(=S)Nc2ccc(Oc3ccccc3)cc2)cc1 | 7%
COc1ccccc1N(CC(=O)Nc1ccc(NC(C)=O)cc1)S(=O)(=O)c1ccccc1 | i
O=C(O)C1CC(=O)N(c2ccc(OCc3ccccc3)cc2)C1 (stereo not drawn) | 17%
CCOc1ccccc1OCCN1CC(C)OC(C)C1 (stereo not drawn) | i
Cc1sc2nc(SCCC(=O)NC3CCCCC3)[nH]c(=O)c2c1C | i
N#C/C(=C\c1ccc(OCC(=O)O)cc1)C(N)=S | i
CCCCOc1ccc(C(=O)Nc2nnc(SCc3ccc(F)cc3)s2)cc1 | 34%
CCCn1c(S(=O)(=O)O)nc2ccccc21 | 11%
CC(C)c1ccc(OCC(=O)NC(=S)Nc2ccc3c4c(cccc24)CC3)cc1 | i
Cn1nc(-c2ccc(N3CCCCC3)c(NC(=O)c3ccccc3Cl)c2)c2ccccc2c1=O | i
O=C(O)C1CC=CCC1C(=O)N1CCCC1 (stereo not drawn) | i
CC(=O)c1ccccc1OCCCCN1CCCCC1 | i
Cc1ccc(C(=O)Nc2ccc(Nc3ccccc3)cc2)c(C)c1 | i
O=C(OCC(=O)c1ccccc1Br)c1ccc2ccccc2n1 | i
CCOc1ccc(C(=O)NC(=S)Nc2ccc(C(=O)O)cc2)cc1[N+](=O)[O-] | i
COc1ccc(NC(=O)CCN2C(=O)C3C4C=CC(C4)C3C2=O)cc1 (stereo not drawn) | i
Cc1cccc(NC(=O)CCCN2C(=O)c3ccccc3C2=O)n1 | i
Cc1nnc2sc(-c3ccc(NC(=O)c4ccc(-c5ccccc5)cc4)cc3)nn12 | i
CC(=O)Oc1ccc(C(=O)Nc2ccccc2C(=O)Nc2nccs2)cc1 | i
CCc1ccc(-c2c(C)sc(NC(=O)C3CCC3)c2C#N)cc1 | i
CCOc1ccc(-c2nnc(Nc3ccc(OC)c(C(=O)NC)c3)c3ccccc23)cc1 | 18%
COc1ccc([N+](=O)[O-])cc1NC(=O)CN(c1cccc(Cl)c1Cl)S(=O)(=O)c1ccccc1 | i
Cc1cc(NC(=O)c2ccco2)ccc1-c1cc2ccccc2oc1=O | i
C=CCn1c(COc2cccc3ccccc23)n[nH]c1=S | 1%
CCOCCCNC(=O)N1CCOCC1 | i

Grouped by structure: the compounds so far containing fluorine.
SMILES | Mtb H37Rv
O=C(Nc1ccc(F)cc1)c1ccc2nc[nH]c2c1 | i
Fc1ccccc1-c1nc(N2CCOCC2)c2ccccc2n1 | i
Cc1ccc(S(=O)(=O)Nc2ccc(S(=O)(=O)c3ccc(F)cc3)cc2)cc1 | 1%
Cc1ccsc1CN1CCN(c2cccc(C(F)(F)F)c2)CC1 | 0%
COc1ccc(-c2cc(C(F)(F)F)nc(SCCC(=O)Nc3cn(C)nc3C)n2)cc1 | i
CCN(Cc1ccccc1)C1CCN(Cc2ccccc2C(F)(F)F)CC1 | i
Nn1c(SCc2ccccc2)nnc1C(F)(F)F | i
CCOc1ccc(-n2c(C)nnc2SCC(=O)Nc2ccccc2C(F)(F)F)cc1 | i
CSc1ccc(C2c3c(oc4ccc(C)cc4c3=O)C(=O)N2Cc2ccc(F)cc2)cc1 (stereo not drawn) | i
O=C(NCC(F)(F)F)Nc1ccccc1 | i
NC(=O)C1CCN(C2CC(=O)N(c3ccc(F)c(Cl)c3)C2=O)CC1 (stereo not drawn) | i
O=C(COc1ccccc1F)Nc1nc(-c2ccc(S(=O)(=O)N3CCCC3)cc2)cs1 | i
CCc1ccccc1NC(=O)CN(c1cccc(C(F)(F)F)c1)S(C)(=O)=O | 2%
O=C(CSc1nnc(Cc2ccccc2)o1)Nc1ccc(Br)cc1F | i
Cc1c(F)cccc1NC(=O)C1CCCCC1C(=O)O (stereo not drawn) | i
FC(F)(F)c1ccccc1NC(=S)NN1CCOCC1 | i
Fc1ccc(CNC(=S)Nc2ccc(Oc3ccccc3)cc2)cc1 | 7%
CCCCOc1ccc(C(=O)Nc2nnc(SCc3ccc(F)cc3)s2)cc1 | 34%
